# MT1-MMP promoter = inhibitors of MT1-MMP promoter transcription, cell-based, luciferase reporter, luminescence (AID 618) | MT1-MMP promoter luciferase reporter cells, luminescence | calls from a first round at 10 µM; hits with a dose series show EC50 in µM | 0.62% of 87,000 active;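 active = over half of the reporter light lost at 10 µM or EC50 under 50 µM; inactive = the rest and hits that failed the dose series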;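 note: actives suppress MT1-MMP promoter-driven transcription so potencies describe inhibitors; HT1080 fibrosarcoma cells; overnight exposure; toxic or luciferase-blocking compounds were not removed from the actives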
# WNV protease inh = inhibitors of West Nile virus NS2B-NS3 protease | 0.18% of 65,000 active | z-score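 (tested at a level between 10 and 100 µM)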 | WNV NS2B-NS3 protease, fluorogenic substrate Ex360/Em465; hits give low values;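 active = z-score at -3 or under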;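 note: score is relative to mean and spread of the compound wells of a plate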
# Target sequence (P06935 1371-1501 limits assumed): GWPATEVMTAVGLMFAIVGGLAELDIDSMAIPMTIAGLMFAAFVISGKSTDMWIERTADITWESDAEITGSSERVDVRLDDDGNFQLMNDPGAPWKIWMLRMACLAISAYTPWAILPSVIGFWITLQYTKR
# Target sequence (P06935 1502-1679 limits assumed): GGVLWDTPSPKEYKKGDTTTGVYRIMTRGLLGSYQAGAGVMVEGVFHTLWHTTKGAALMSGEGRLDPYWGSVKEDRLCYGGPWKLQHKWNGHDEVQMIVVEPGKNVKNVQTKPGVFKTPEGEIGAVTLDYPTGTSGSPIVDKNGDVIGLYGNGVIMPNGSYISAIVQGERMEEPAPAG
# * = called active by the depositor; i = inactive; · = no result given; + = active, no number.
SMILES,MT1-MMP promoter,WNV protease inh
Cc1cc2cc(CNC(=O)c3ccc(Br)o3)ccc2n1C,·,-0.56
Cc1nc(-c2ccc(NS(C)(=O)=O)cc2)cs1,·,0.0025
CCC(=O)Nc1c2c(nn1-c1ccc(OC)cc1)CS(=O)C2 (configuration not stated),·,0.45
CN(c1ccc(O)cc1)c1nc(-c2ccccc2)cs1,·,-0.79
COC(=O)c1cn(-c2ccccc2)nc1C(=O)OC,·,0.88
COc1cc(C(=O)Oc2c(CN3CCOCC3)cc(Cl)c3cccnc23)cc(OC)c1OC,·,0.22
Cc1cccc(NC(=O)C2CCN(S(=O)(=O)c3cccs3)CC2)n1,·,0.37
Cc1occc1C(=O)Nc1nn[nH]n1,·,1.6
CCCCn1nc(CC(=O)O)c2ccccc2c1=O,·,0.88
Cc1cccc(OCCCCCn2ccnc2)c1,·,-0.16
O=C(NCCCn1ccnc1)Nc1ccc(Cl)cc1,·,2.2
O=c1/c(=C\c2cccnc2)sc2nc3ccccc3n12,·,1
CC1(C)CC(=O)c2c(-c3cccs3)n[nH]c2C1,·,-0.43
CCSc1nnc(NC(=O)C(C)C)s1,·,0.49
Cc1nn(-c2nnc(C)c(=O)[nH]2)c(C)c1SCC(=O)Nc1ccc(C(C)C)cc1,·,-0.9
CCOC(=O)c1c(NC(=O)c2cccs2)sc2c1CCCC2,·,-0.66
COc1cc(S(=O)(=O)NCc2ccc3c(c2)OCO3)ccc1Cl,·,-0.74
COCCNC(=O)COc1ccc(C)c(C)c1,·,0.57
CCOC(=O)N1CCN(C(=O)CSc2nnc(CNC(=O)c3c(F)cccc3Cl)o2)CC1,·,1
CCOC(=O)Cc1nc2ccccc2[nH]1,·,-0.24
O=C(CCNS(=O)(=O)c1cccc2nsnc12)N1CCc2ccccc21,·,1.3
O=C(c1ccco1)N1CCN(S(=O)(=O)N2CCOCC2)CC1,·,1.2
CCOC(=O)C1CCCN(C/C(O)=C(\C#N)c2nc(-c3ccccc3)cs2)C1 (configuration not stated),·,1.5
CCOC(=O)C(CC)n1cnc2sc3c(c2c1=O)CCC3 (configuration not stated),·,0.68

# Grouped by structure: those above with two or more sulfur atoms (5)
SMILES,MT1-MMP promoter,WNV protease inh
Cc1nc(-c2ccc(NS(C)(=O)=O)cc2)cs1,·,0.0025
Cc1cccc(NC(=O)C2CCN(S(=O)(=O)c3cccs3)CC2)n1,·,0.37
CCSc1nnc(NC(=O)C(C)C)s1,·,0.49
CCOC(=O)c1c(NC(=O)c2cccs2)sc2c1CCCC2,·,-0.66
O=C(CCNS(=O)(=O)c1cccc2nsnc12)N1CCc2ccccc21,·,1.3

# Following part:
SMILES,MT1-MMP promoter,WNV protease inh
CC1Cn2c(nnc2-c2cccc(N)c2)S1 (configuration not stated),·,-0.0028
CCc1nnc(NS(=O)(=O)c2ccc(N3C(=O)C4CC=C(Cl)CC4C3=O)cc2)s1 (configuration not stated),·,1.6
O=C1COc2ccc(C(=O)c3ccccc3)cc2CN1,·,0.89
CSc1ccccc1NC(=O)CCn1c(=O)sc2ccccc21,·,0.11
CCOC(=O)c1nnn(CC(=O)Nc2cccc(Cl)c2C)c1C(=O)OCC,·,-0.52
CC(=O)NC1C(=O)N=C(SCc2ccccc2)NC1=O (configuration not stated),·,0.73
CC(C)(C)OC(=O)N1CCC(C(=O)N2CCOCC2)CC1,·,1.1
CCOC(=O)c1[nH]cnc1C(=O)Nc1ccncc1,·,0.73
Cc1nnc(Sc2nc3c(c(=O)[nH]c(=O)n3C)n2CCc2ccccc2)s1,·,0.14
COc1ccc(CN2CCN(C(=O)c3cc(OC)c(OC)c(OC)c3)CC2)cc1OC,·,-1.4
CCC(=O)N1CCc2cc(S(=O)(=O)NCCCN(CC)Cc3ccccc3)ccc21,·,-0.77
COC(=O)c1ccc(-c2nc(-c3ccc(Br)o3)no2)cc1,·,0.95
Cc1nc2cc(CO)ccc2n1C,·,0.44
O=C(O)CCc1nc(-c2ccc(Cl)cc2)no1,·,-0.71
CCCS(=O)(=O)N1CCN(C(=O)c2ccc(-c3ccccc3)cc2)CC1,·,0.17
COc1cc2c(cc1OC)CN(C(=O)c1cccs1)CC2,·,1.5
CCc1sc(NS(C)(=O)=O)nc1-c1ccccc1,·,-0.18
O=C(Cn1cc2c(n1)CCCC2)N1CCc2ccccc21,·,0.78
CN(C)CCCNc1ncnc2c1cnn2-c1ccccc1,·,-1.7
O=C(Nc1cc(C(F)(F)F)ccc1F)C1CCC1,·,-0.49
COc1cc2c(cc1OC)CN(C(=O)C(C)(C)C)CC2,·,-0.64
CCOC(=O)N1C(=O)c2cc(OC)ccc2S1(=O)=O,·,0.41
COc1cccc(NS(=O)(=O)c2cc(C)ccc2OC)c1,·,0.89
COc1ccccc1Nc1ncc(-c2cccs2)s1,·,-0.12
CCOC(=O)c1ccc(CNC(=O)CCC(=O)O)cc1,·,-0.75
O=S(=O)(c1ccc(Cl)c(Cl)c1)N1CCc2nc3ccccc3n2CC1,·,0.69
CCOc1ccc(C2CC(c3cccc(C)c3)n3ncnc3N2)cc1 (configuration not stated),·,0.29
COc1ccc(Cn2nnnc2C(c2ccccn2)N2CCN(c3cc(Cl)ccc3C)CC2)cc1 (configuration not stated),·,0.68
CCOc1ccc(C(=O)CN2CCN(S(=O)(=O)c3ccc(Br)cc3)CC2)cc1,·,-0.87
COc1ccc(-n2c3c(cc(C(=O)N4CCN(CCO)CC4)c2=O)C(=O)CC(C)(C)C3)cc1,·,-0.22
CCOC(=O)Cn1c(-c2nonc2NC(=O)c2ccccc2F)nc2ccccc21,·,-0.92
CCOC(=O)/C(C(N)=NCCO)=C(/O)c1ccccc1,·,0.22
Cn1c(=O)oc2cc(S(=O)(=O)NCCC(=O)N3CCc4ccccc4C3)ccc21,·,-0.17
CCOC(=O)N1CCN(c2ccc(C(=O)c3cccc(F)c3)cc2)CC1,·,0.6
COc1ccc(NC(=O)CN2CCC(C(N)=O)(N3CCCCC3)CC2)cc1,i,·
CC1CCN(CCCNC(=O)CCCNC(=O)Cn2cnc3sc4c(c3c2=O)CCCC4)CC1,i,·

# Ordered by molar mass (rising): 3 of the compounds above.
SMILES,MT1-MMP promoter,WNV protease inh
CCOC(=O)N1CCN(c2ccc(C(=O)c3cccc(F)c3)cc2)CC1,·,0.6
COc1ccc(-n2c3c(cc(C(=O)N4CCN(CCO)CC4)c2=O)C(=O)CC(C)(C)C3)cc1,·,-0.22
CC1CCN(CCCNC(=O)CCCNC(=O)Cn2cnc3sc4c(c3c2=O)CCCC4)CC1,i,·

# Continuation.
SMILES,MT1-MMP promoter,WNV protease inh
COC(=O)[C@H]1C[C@@H]1[C@H](NS(=O)(=O)c1ccccc1)c1ccccc1,i,·
COc1ccc(-c2cc(-c3ccccc3)c(C#N)c(S(C)=O)n2)cc1 (configuration not stated),i,·
CCN(CCC(=O)Nc1ccc(Br)c(C)c1)Cc1ccccc1,i,·
Cc1ccc(-c2cc(C)nc3nc(N)nn23)cc1,i,·
COc1ccc(CS(=O)(=O)/C(Cl)=C(/Cl)C(=O)Nc2ccc(OC)nc2)cc1,+,·
C=CCSc1nnc2c(n1)OC(c1ccccn1)N(C(C)=O)c1ccccc1-2 (configuration not stated),i,·
CCOC(=O)C1=C(C)OC(N)=C(C#N)C1c1cc(F)ccc1F (configuration not stated),i,·
COC(=O)[C@@]1(Cc2ccccc2)[C@H]2c3cc(C(=O)N(C)C)n(CCF)c3C[C@H]2CN1C(=O)c1ccccc1,i,·
CCOC(=O)CNC(=O)C1c2ccccc2C(=O)N(c2ccc(OC)cc2)C1c1ccc(OC)cc1 (configuration not stated),i,·
Cc1cc2c3c(c1)C1(SCC(=O)N1c1ccc(F)cc1)C(=O)N3C(C)(C)CC2C (configuration not stated),i,·
Cc1oc(-c2cccs2)nc1CSCC(=O)NC1CC1,i,·
O=C(O)CCC(=O)NCc1ccc(F)cc1,i,·
CC(=O)c1ccc(NS(=O)(=O)Cc2ccc(Cl)cc2)cc1,i,·
Cc1cccc(CN2CCN(CC(=O)NCc3cccs3)C2=O)c1,i,·
COC(=O)C1=C(C)N(CCCC(=O)O)C(=O)NC1c1ccc([N+](=O)[O-])cc1 (configuration not stated),i,·
CCOC(=O)C(=CN(CCc1ccccc1)CC(=O)OC)C(=O)OCC,i,·
COC(=O)COc1cccc(NC(=O)c2ccc(C)cc2)c1,i,·
CN(C)CCNCc1ccc(OC2CCCC2)cc1,i,·
CCOC(=O)C1=C(C)N(CCCC(=O)O)C(=O)NC1C(CC)CC (configuration not stated),i,·
CCN(C(=O)Cn1c(=O)n(Cc2ccccc2)c(=O)c2ccccc21)c1cccc(C)c1,i,·
Cc1ccc(NC(=O)CC(O)(C(F)(F)F)C(F)(F)F)cc1,i,·
CCCOP(=O)(OCCC)c1c([N+](=O)[O-])cc(C(F)(F)F)cc1[N+](=O)[O-],i,·
COc1ccc(Nc2ncc(C(=O)N3CCN(c4ccc(F)cc4)CC3)c3ccccc23)cc1,i,·
Cc1ccc(CNC(=O)CSc2c3c(nc4ccc(Cl)cc24)CCCC3)o1,i,·
C#CCNC(=O)/C=C/c1ccc(C)cc1,i,·
CCCOc1ccc(N2C(=O)CC(N(CCc3ccc(S(N)(=O)=O)cc3)C(C)=O)C2=O)cc1 (configuration not stated),i,·
Cn1c(N)c(C(=O)COC(=O)c2cc(C(F)(F)F)nc3ccccc23)c(=O)n(C)c1=O,i,·
CCOc1ccccc1N/C(=C(/C(Cl)=C(Cl)Cl)[N+](=O)[O-])n1cncn1,i,·
CCCCCCN(C(=O)CCCCCN1C(=O)NC(c2ccc(C(C)(C)C)cc2)C(C(=O)OCc2ccccc2)=C1C)C(C(=O)NCCCC)c1ccc(OCC(=O)OC)c(C(=O)OC)c1 (configuration not stated),i,·
CCOc1c(Cl)cc(C2NC(=O)NC(C)=C2C(=O)NCc2ccccc2)cc1OC (configuration not stated),i,·
CC(C)(C)[Si](OCC[C@@H]1C[C@@]1(C)[C@@H](NP(=O)(c1ccccc1)c1ccccc1)c1ccccc1)(c1ccccc1)c1ccccc1,i,·
Cc1nn(Cc2ccc(F)cc2)c(C)c1NC(=O)c1cnn2c1NC(c1cccs1)CC2C(F)(F)F (configuration not stated),i,·
C(=N\n1cnnc1)/c1ccc(OCc2cccc3ccccc23)cc1,i,·
CCCCCCCCOC(=O)C1=C(C)Nc2nnnn2C1c1cccs1 (configuration not stated),i,·
COc1ccc2nc3c(cc2c1)Cc1ccccc1-3,i,·
O=C(NCCCN1CCc2ccccc2C1)Nc1ccc(Cl)cc1,i,·
CC(C)(C)C(=O)Cn1c(=N)n(Cc2ccccc2Cl)c2ccccc21,i,·
Cc1nnc(C)n1/N=C/c1ccc(-c2ccccc2)cc1,i,·
Cc1ccc2c(C)c(C(=O)Nc3cccnc3)oc2c1,i,·
COc1ccc(OC)c(NC(=O)c2ccccc2SC)c1,i,·
COc1cccc(Nc2nc3ccccc3n3nnnc23)c1,i,·
COc1cc([N+](=O)[O-])ccc1N/C=C/C(=O)c1cccs1,2µM*,·
COc1ccc(S(=O)(=O)N2CCCCC2)cc1,i,·
CCOC(=O)c1cc(OC(=O)c2ccccc2OC)n(-c2ccccc2)n1,i,·
COc1ccccc1CNC(=O)Cn1cccc1,i,·
O=C(CSc1nc2ccccc2c(=O)n1NC(=O)Cc1ccccc1)NCc1ccccc1,i,·
O=C(NCc1ccco1)c1ccc(S(=O)(=O)N2CCOCC2)cc1,i,·
COC(=O)[C@@]1(Cc2ccc(OC)cc2)[C@H]2c3cc(C(=O)N4CCCC4)n(Cc4c(CO)[nH]cc(C)c4=O)c3C[C@H]2CN1C(=O)c1ccccc1,i,·

# Reformatted: entries from further up
structure: O=C(NCc1ccco1)c1ccc(S(=O)(=O)N2CCOCC2)cc1
  MT1-MMP promoter = i | WNV protease inh = ·
structure: COC(=O)[C@@]1(Cc2ccc(OC)cc2)[C@H]2c3cc(C(=O)N4CCCC4)n(Cc4c(CO)[nH]cc(C)c4=O)c3C[C@H]2CN1C(=O)c1ccccc1
  MT1-MMP promoter = i | WNV protease inh = ·

# Later entries.
SMILES,MT1-MMP promoter,WNV protease inh
C/C(=C\c1ccccc1)C(=O)Nc1cc(C)on1,i,·
COc1ccc2c(C)nc(Nc3nc(C)c(C)c(=O)[nH]3)nc2c1,i,·
Cc1cc(C(=O)Nc2cccnc2Cl)on1,i,·
O=C(CSC1=NC(=O)C(c2ccccc2)C(=O)N1)Nc1cccc(Cl)c1 (configuration not stated),i,·
Cc1cccc(NC(=S)NCC2CCCO2)c1 (configuration not stated),i,·
C[C@@H](C(=O)NCc1nc2ccccc2[nH]1)[C@@H]1C[C@@]1(C)[C@@H](NC(=O)OCc1ccccc1)c1ccccc1,i,·
COc1ccc(-c2cc(=O)oc3cc(OC(C)C(=O)O)ccc23)cc1 (configuration not stated),i,·
Cc1ccc(-n2c(Cc3ccccc3)n[nH]c2=S)cc1,i,·
O=C(NC1C(=O)NNC1c1ccccc1)c1ccc(F)cc1 (configuration not stated),i,·
CCCCOc1ccc(-c2nc(SCC(N)=O)n[nH]2)cc1,i,·
CCC1Sc2ccccc2N(CC(=O)NCCC2=CCCCC2)C1=O (configuration not stated),i,·
COC(=O)c1ccc2c(=O)n(CCN3CCOCC3)c(SCC(=O)C(C)(C)C)nc2c1,i,·
CCN1CC2=C(OC(N)=C(C#N)C2c2cccs2)/C(=C\c2cccs2)C1 (configuration not stated),i,·
CC1(C)CC(=O)C2=C(C1)N(c1ccccc1)C(N)=C(C#N)C2c1ccsc1 (configuration not stated),i,·
O=C(CCc1ccccc1)N1CCN(c2ccc(Cl)cc2)CC1,i,·
Cc1cccc(N2CCN(C(=O)C(C)n3nc(C)n4c(cc5occc54)c3=O)CC2)c1C (configuration not stated),i,·
CC1CCC(C(C)C)C(OCC(O)CN2CCOCC2)C1 (configuration not stated),i,·
CCOC(=O)Cc1csc(NC(=O)c2ccc(Br)o2)n1,i,·
O=C(CC1(O)C(=O)N(Cc2cccc3ccccc23)c2ccccc21)c1cccnc1 (configuration not stated),i,·
O=[N+]([O-])/C(C(Cl)=C(Cl)Cl)=C(\Nc1ccc(F)cc1)n1cncn1,i,·
COc1ccc2cc(C(=O)O)ccc2c1,i,·

# Not all compounds are listed (hit frequency here may not be typical).
